Screening results deposited in PubChem by several laboratories.
Vif A3G: inhibitors of Vif binding to APOBEC3G peptide, primary screen, biochemical, TR-FRET, GST-Vif 1-94, biotin-A3G peptide, dose response retest (AID 1117319). Virion infectivity factor (Human immunodeficiency virus type 1 group M subtype B (isolate …. TR-FRET GST-Vif / biotin-A3G peptide binding; higher % means a stronger effect; test concentration not given here; strong numbers were not always called active. inhibition, %, or IC50 in µM where a hit was titrated. 260,000 compounds, 0.57% hits;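 active = above the screen mean plus three standard deviations and confirmed in dose response; inconclusive = results disagree or hit not tested in dose response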;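 also: Vif residues 1-94 fused to GST binding biotinylated APOBEC3G peptide 110-148; 0% = full assay without inhibitor and 100% = GST in place of GST-Vif; retest series ran down from 100 µM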
Ecoli growth: E. coli growth inhibition, primary screen, OD600; AID 1053175, 2014; Escherichia coli growth, 23 h; active compounds read low; 330,000 compounds, 0.21% hits; OD600 absorbance (concentration not given with the values);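 active = OD600 absorbance below the run mean of sample wells minus 3.6 SD, in any replicate, cut at about 0.56 in these data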;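 also: stock transfer was 300 nL into about 60 µL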
AF4-AF9 inh: inhibitors of AF4 peptide binding to AF9, primary screen, biochemical, AlphaScreen, biotin-AF4 peptide, FLAG-AF9, single point; inhibition, % at 10 µM; 350,000 compounds, 0.47% hits; AID 651704, 2012;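 active = every replicate reaching a set inhibition limit, whatever the replicate mean, cut at about 25% in these data; inconclusive = mean inhibition reaches that limit but some replicates miss it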;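 also: 0% = plate neutral control median and 100% = total signal loss; the record names both 10 and 1 µM as test concentration; the first replicate is given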
Target sequence (P42568 whole entry, looked up): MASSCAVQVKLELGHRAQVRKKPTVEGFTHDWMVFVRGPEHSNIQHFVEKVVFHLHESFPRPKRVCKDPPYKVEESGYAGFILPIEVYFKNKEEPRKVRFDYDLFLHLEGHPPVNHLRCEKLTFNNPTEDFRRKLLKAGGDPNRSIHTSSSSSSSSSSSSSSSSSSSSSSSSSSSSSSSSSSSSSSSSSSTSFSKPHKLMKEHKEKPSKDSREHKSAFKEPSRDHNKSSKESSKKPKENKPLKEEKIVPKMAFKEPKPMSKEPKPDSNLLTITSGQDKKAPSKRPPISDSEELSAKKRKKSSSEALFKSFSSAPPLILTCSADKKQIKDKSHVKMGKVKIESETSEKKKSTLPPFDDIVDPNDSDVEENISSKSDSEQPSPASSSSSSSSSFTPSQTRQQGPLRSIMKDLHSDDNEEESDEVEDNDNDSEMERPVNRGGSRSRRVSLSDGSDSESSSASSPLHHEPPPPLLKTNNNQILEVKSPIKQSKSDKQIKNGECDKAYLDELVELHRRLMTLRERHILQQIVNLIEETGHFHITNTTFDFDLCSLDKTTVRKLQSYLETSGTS
FGF22 binding: binders of human FGF22 protein, primary screen, FGF22 synaptogenesis inhibitor project, biophysical, thermal shift, single point. calls only at 9.99 µM. Fibroblast growth factor 22 (Homo sapiens), Q9HCT0. recombinant FGF22 thermal shift, SYPRO orange fluorescence; percent of sucrose octasulfate shift, DMSO zero. 340,000 compounds, 1.5% hits. AID 651658, 2012;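 active = melting point raised past a set limit in the mean and every replicate; inconclusive = no clear call; three in four hits are not shown here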
rRNA inh HTS: reduced GFP signal of wild-type E. coli, primary screen, bacterial rRNA inhibitor project, GFP/RFP fluorescence, OD600, single point. E. coli WT GFP vs humanized-ribosome RFP mutants, 24 h; active compounds read low; DMSO median 0, no signal -100. GFP signal change (wild-type ribosome), % (test concentration not listed). 350,000 compounds, 1.6% hits;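 active = significant combined selectivity score with lowered wild-type GFP, culture density cut under 30%, mutant RFP and density less affected; inactive = any of these conditions unmet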; also: one replicate is shown; some compounds called inactive have numbers as strong as hits
ALR H2O2 inh: inhibitors of human ALR sulfhydryl oxidase, primary screen, biochemical, H2O2 detection, HRP-luminol luminescence, single point; purified ALR, DTT oxidation; inhibition, % (test concentration not listed); 290,000 compounds, 3.8% hits;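 active = mean and each replicate at 75% or more; inconclusive = only one of the two met; inactive = neither met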;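 also: stock transfer was 7.5 nL into about 7.5 µL; 0% = neutral wells and 100% = wells with inactivated enzyme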
HNF4A DNA FP: change in binding of human HNF4A to DNA, primary screen, biochemical, fluorescence polarization, FITC-DNA. Hepatocyte nuclear factor 4-alpha (Homo sapiens), P41235. 1 h. activity change, % at 10 µM. 360,000 compounds, 0.3% hits; in the data active = activity change above about 30%, passing the limit was not always enough;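 also: controls were the assay level and a saturating level of protein; the project sought stronger binding though the title names inhibitors; some compounds called inactive have numbers as strong as hits; positive values seem to mean higher polarization but the record does not say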
Target sequence (P41235 whole entry, looked up): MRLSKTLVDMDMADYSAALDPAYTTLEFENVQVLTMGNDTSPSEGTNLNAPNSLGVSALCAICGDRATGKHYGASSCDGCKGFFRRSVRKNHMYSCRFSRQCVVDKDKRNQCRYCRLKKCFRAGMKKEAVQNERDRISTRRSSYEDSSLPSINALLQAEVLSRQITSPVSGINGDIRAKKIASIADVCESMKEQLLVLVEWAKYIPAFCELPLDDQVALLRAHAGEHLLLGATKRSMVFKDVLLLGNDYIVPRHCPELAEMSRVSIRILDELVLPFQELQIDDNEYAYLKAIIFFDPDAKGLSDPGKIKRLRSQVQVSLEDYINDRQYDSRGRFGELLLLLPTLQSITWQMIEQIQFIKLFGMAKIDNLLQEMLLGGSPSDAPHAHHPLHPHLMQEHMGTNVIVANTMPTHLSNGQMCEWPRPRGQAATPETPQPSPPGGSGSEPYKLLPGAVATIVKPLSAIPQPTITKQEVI
rRNA inh HTS OD600: also measured in rRNA inh HTS; calls as there; OD600 change, %; measured here: OD600 growth;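 optical density of the mix in the first replicate; 0 = DMSO median and -100 = no signal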
rRNA inh HTS RFP: further read-out of rRNA inh HTS, marked with its call; RFP signal change, %; measured here: RFP humanized mutant strains;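 first replicate; 0 = DMSO median and -100 = no signal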
Numbers without * were called inactive; i = inactive; ? = inconclusive; . = not tested or not shown; + = active, no number.

SMILES	Vif A3G	Ecoli growth	AF4-AF9 inh	FGF22 binding	rRNA inh HTS	rRNA inh HTS OD600	rRNA inh HTS RFP	ALR H2O2 inh	HNF4A DNA FP
O=C(C[C@@H]1CC[C@H](NC(=O)NC2CCCCC2)[C@@H](CO)O1)NCc1ccccc1	.	.	-1.1	i	-1	-2	-2.2	.	.
COc1ccccc1C(=O)Oc1cc(N)n(S(=O)(=O)c2ccccc2)n1	.	0.7	-3.2	i	8	12	2.1	43	4.5
COc1ccc(Cl)cc1NC(=O)CN1CCN(S(=O)(=O)N2CCCCC2)CC1	.	0.72	-3.0	i	6	3	-2.5	-3	3.1
O=C(NCc1ccco1)c1cc2sccc2n1Cc1ccc(F)cc1	0%	0.73	.	.	.	.	.	-19	0.1
CC(C)NC(=O)CCc1nnc(Cc2cccc(C(F)(F)F)c2)o1	5%	0.72	-2.4	.	20	21	2.5	-5	-2.7
COc1ccc(COC(=O)C2CC(=O)N(Cc3ccc(C)cc3)C2)cc1 (centres undefined)	-3%	0.67	.	.	.	.	.	1	6.0
CC(C)[C@@H](C(=O)NCC1CCC(C(=O)O)CC1)n1nnc2ccccc2c1=O (some centres undefined)	-1%	0.69	.	.	.	.	.	-6	1.6
CN(C)CC(=O)N1[C@@H]2c3ccc(-c4ccccc4)c(=O)n3C[C@H]1[C@H](CO)[C@H]2C(=O)N1CCCCC1	.	.	-2.3	i	0	12	-2.5	.	.
Cc1nn(C(=O)N2CCOCC2)c(C)c1CN1C(=O)c2ccccc2C1=O	-3%	0.7	.	.	.	.	.	-2	1.2
O=C(O)C1C2C=CC(O2)C1C(=O)Nc1cccc(C(F)(F)F)c1 (centres undefined)	.	0.71	-1.8	i	2	-9	0.7	2	-2.8
CCn1ccc(C(=O)Nc2ccc3c(c2)CCC3)n1	0%	0.69	.	.	.	.	.	7	8.9
O=C(C[C@@H]1C=C[C@H](NC(=O)c2ccncc2)[C@@H](CO)O1)Nc1ccc(-c2ccccc2)cc1	.	.	1.6	i	-9	-1	2.4	.	.

An excerpt from above in order of their number in rRNA inh HTS RFP, descending:
| compound | Vif A3G | AF4-AF9 inh | rRNA inh HTS | rRNA inh HTS OD600 | rRNA inh HTS RFP | ALR H2O2 inh |
| --- | --- | --- | --- | --- | --- | --- |
| O=C(C[C@@H]1C=C[C@H](NC(=O)c2ccncc2)[C@@H](CO)O1)Nc1ccc(-c2ccccc2)cc1 | . | 1.6 | -9 | -1 | 2.4 | . |
| O=C(C[C@@H]1CC[C@H](NC(=O)NC2CCCCC2)[C@@H](CO)O1)NCc1ccccc1 | . | -1.1 | -1 | -2 | -2.2 | . |
| COc1ccc(Cl)cc1NC(=O)CN1CCN(S(=O)(=O)N2CCCCC2)CC1 | . | -3.0 | 6 | 3 | -2.5 | -3 |

Another view of some results above:
SMILES | Vif A3G | Ecoli growth | AF4-AF9 inh | FGF22 binding | rRNA inh HTS | rRNA inh HTS OD600 | rRNA inh HTS RFP | ALR H2O2 inh | HNF4A DNA FP
O=C(C[C@@H]1CC[C@H](NC(=O)NC2CCCCC2)[C@@H](CO)O1)NCc1ccccc1 | . | . | -1.1 | i | -1 | -2 | -2.2 | . | .
COc1ccccc1C(=O)Oc1cc(N)n(S(=O)(=O)c2ccccc2)n1 | . | 0.7 | -3.2 | i | 8 | 12 | 2.1 | 43 | 4.5

Returning to the listing; the 5 compounds before the break are reprinted first.
SMILES	Vif A3G	Ecoli growth	AF4-AF9 inh	FGF22 binding	rRNA inh HTS	rRNA inh HTS OD600	rRNA inh HTS RFP	ALR H2O2 inh	HNF4A DNA FP
CN(C)CC(=O)N1[C@@H]2c3ccc(-c4ccccc4)c(=O)n3C[C@H]1[C@H](CO)[C@H]2C(=O)N1CCCCC1	.	.	-2.3	i	0	12	-2.5	.	.
Cc1nn(C(=O)N2CCOCC2)c(C)c1CN1C(=O)c2ccccc2C1=O	-3%	0.7	.	.	.	.	.	-2	1.2
O=C(O)C1C2C=CC(O2)C1C(=O)Nc1cccc(C(F)(F)F)c1 (centres undefined)	.	0.71	-1.8	i	2	-9	0.7	2	-2.8
CCn1ccc(C(=O)Nc2ccc3c(c2)CCC3)n1	0%	0.69	.	.	.	.	.	7	8.9
O=C(C[C@@H]1C=C[C@H](NC(=O)c2ccncc2)[C@@H](CO)O1)Nc1ccc(-c2ccccc2)cc1	.	.	1.6	i	-9	-1	2.4	.	.
COc1ccccc1NC(=O)Cn1nc(-c2ccc3c(c2)OCCO3)ccc1=O	.	0.62	0.4	i	14	13	2.2	3	-0.9
O=C(Nc1nc2ccccc2n1CCN1CCCC1)c1ccc(Cl)cc1	?	0.8	.	.	.	.	.	.	0.8
C[C@H](CO)N1C[C@H](C)[C@H](CN(C)C(=O)NC2CCCCC2)Oc2ccc(NS(C)(=O)=O)cc2CC1=O	.	.	-2.6	i	2	4	-2.7	.	.
COc1ccc(C(=O)N/C(=C\c2cn(S(=O)(=O)N(C)C)c3ccccc23)C(=O)NC(C)C)cc1	-4%	0.65	1.1	i	5	6	-14	-7	-3.8
Oc1ccc(-c2nnc(Nc3cccc(O)c3)c3ccccc23)cc1	-12%	0.67	3.3	+	-41	-51	1.3	98*	-1.1
Cc1noc(C)c1C(=O)N(C)C[C@@H]1OCc2ccccc2-c2ccccc2C(=O)N([C@@H](C)CO)C[C@@H]1C	.	.	-1.7	i	0	4	-0.9	.	.
CC(NC(=O)c1cccc(S(=O)(=O)N2CCN(Cc3ccccc3)CC2)c1)c1ccccc1Cl (centres undefined)	.	0.67	0.5	i	0	6	3.7	.	-3.9
O=C(O)CCCCCN1C(=O)C(O)=C(C(=O)/C=C/c2ccccc2)C1c1ccccc1[N+](=O)[O-] (centres undefined)	6%	.	-1.7	i	7	4	2.4	53	1.5
Cc1cccc(C(=O)Nc2ccc(S(=O)(=O)N3CCOCC3)cc2)c1[N+](=O)[O-]	.	0.69	0.4	i	3	4	0.4	-16	-2.3
COc1ccc(-c2noc(CCC(=O)N3CCN(c4cccc(OC)c4)CC3)n2)cc1	.	0.68	-3.0	i	-32*	-20*	0.2*	.	1.2
CCOC(=O)c1ccccc1N1C(=O)CSC1=S	7%	0.7	8.7	i	10	-1	57	4	1.1
COC(=O)C(NC(C)=O)(Nc1ccc(C)cn1)C(F)(F)F (centres undefined)	8%	0.68	-0.7	i	3	14	-0.5	-17	-2.3
Cc1ccc(C(=O)Cn2c(-c3ccccc3)noc2=O)cc1	12%	0.68	-3.3	i	-17	-12	-5.3	35	2.4
COc1cc(Cl)c(S(=O)(=O)NCCCN2CCOCC2)cc1Cl	1%	0.7	.	.	.	.	.	-12	-3.3
Cc1noc(C)c1COc1ccccc1C(=O)N1CCN(c2cccc(Cl)c2)CC1	18%	0.64	-12	i	-15	-20	3.0	-1	3.5
Cc1cc(O)ccc1Nc1nc(-c2cccnc2)cs1	.	0.58	3.0	i	-13	-15	4.9	72	1.5
CCOC(=O)[C@@H]1[C@H]2COc3ccccc3[C@H]2N2C(=O)N(c3cccc(F)c3)C(=O)[C@]12C	.	.	1.8	i	-16	-14	-12	.	-0.4
O=C(CNC(=O)c1ccccn1)N/N=C/c1ccc2c(c1)OCO2	-4%	.	2.5	i	10	-1	-0.4	72	1.8
COc1ccc(/C=N/N=C2/NC(=O)C(c3ccccc3)(c3ccccc3)S2)cc1	10%	.	-0.4	i	6	-2	-2.8	2	-3.2
COc1ccc(CN2CCN(C(=O)CN3C(=O)C4C5C=CC(C5)C4C3=O)CC2)c(OC)c1OC (centres undefined)	4%	0.67	.	.	-2	9	-5.0	-2	-1.1
CCOc1ccc2nc(NCCNC(=O)c3cc(OC)c(OC)c(OC)c3)c(C#N)cc2c1	-12%	0.68	-2.1	i	7	11	-0.1	-35	-7.5
Cc1cc(C)n(CCN(C)C(=O)c2cc(COc3c(F)cccc3F)on2)n1	-8%	0.7	-3.9	i	9	7	1.6	-4	0.6
CNC(=S)Nc1cc(OC)c(NC(=O)c2ccco2)cc1OC	.	0.69	-1.4	i	11	8	3.5	-7	-1.4
O=C(NC1CCCCC1)C1CN(S(=O)(=O)c2ccccc2)CCN1S(=O)(=O)c1ccccc1 (centres undefined)	?	0.74	.	.	.	.	.	-5	1.3

With a hit mark in ALR H2O2 inh, among the entries above:
structure | Vif A3G | AF4-AF9 inh | rRNA inh HTS | rRNA inh HTS OD600 | rRNA inh HTS RFP | ALR H2O2 inh
Oc1ccc(-c2nnc(Nc3cccc(O)c3)c3ccccc23)cc1 | -12% | 3.3 | -41 | -51 | 1.3 | 98*

Other records follow.
SMILES	Vif A3G	Ecoli growth	AF4-AF9 inh	FGF22 binding	rRNA inh HTS	rRNA inh HTS OD600	rRNA inh HTS RFP	ALR H2O2 inh	HNF4A DNA FP
CC(=O)Nc1nonc1-c1nc2ccccc2n1CCC#N	10%	0.71	-0.4	i	0	-4	2.4	12	-3.0
Cc1csc(Nc2ccccc2)[n+]1C	.	0.65	3.9	i	1	4	0.8	98*	1.9
Cc1cnc(NC(=O)C2COc3ccccc3O2)s1 (centres undefined)	5%	0.67	.	.	.	.	.	36	1.9
CCCCNC(=O)NC1(C(F)(F)F)Oc2ccccc2O1	10%	0.8	.	.	.	.	.	-6	-6.3
COC(=O)CCc1c(C)c(C(=O)c2ccc(F)cc2)c2ccccn12	-8%	0.66	5.7	.	1	17	16	-41	5.3
COc1ccc2c(c1)cc(C(=O)N[C@@H](CCSC)C(=O)N1CCC(C(=O)O)CC1)n2C	4%	0.66	0.1	i	11	10	-1.7	-8	-0.1
CCN(CC)C(=O)c1cccc(NC(=O)CC23CC4CC(CC(C4)C2)C3)c1	.	0.71	-7.8	i	-2	-15	-1.2	.	2.6
O=C(NCCN1C(=O)S/C(=C\c2cccnc2)C1=O)c1ccc([N+](=O)[O-])s1	0%	0.65	-0.7	i	2	4	-2.0	-29	2.5
Cc1ccc(S(=O)(=O)Nc2cccc(C(=O)N3CCOCC3)c2)c(C)c1NS(C)(=O)=O	.	0.7	-20	i	1	6	-0.9	-8	0.1
C[C@H](CO)N1C[C@H](C)[C@@H](CN(C)S(C)(=O)=O)Oc2ccc(NS(C)(=O)=O)cc2CC1=O	.	.	-0.8	i	2	-1	0.9	.	.
Cc1ccc(N2CCN(CC(O)COc3cccc4ccccc34)CC2)cc1 (centres undefined)	-2%	0.58	2.0	i	-19	-60	21	15	2.6
Cc1ccc(-c2ccc3c(c2)O[C@H](CN(C)C(=O)CN(C)C)[C@@H](C)CN([C@H](C)CO)S3(=O)=O)cc1	.	.	3.4	i	-2	16	-3.2	.	.
CN1[C@@H](Cc2ccccc2)COc2cc(N3CCSCC3)ccc2S1(=O)=O	.	.	1.1	i	0	2	-3.7	.	-1.4
CCCCOC(=O)N1CCOCCOCCOCCOCC1	1%	0.72	.	i	8	10	4.2	-5	-2.0
CCCCn1c(N)c(N(C)C(=O)c2ccccc2Oc2ccccc2)c(=O)[nH]c1=O	-7%	0.67	9.3	i	2	1	-3.5	1	0.2

Not all compounds are listed; the hit share may differ from the screen's.
